RanGTP-Impb inh = disruptors of Ran-importin-beta complex formation – biochemical, FRET, CFP-Ran, YFP-importin-beta, homogeneous, primary screen; AID 2216; inhibition, % (no concentration beside the values); 300,000 compounds, 1.1% hits; cell-free CFP-Ran/YFP-importin-beta FRET ratio;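 active = most replicates above 15%; inconclusive = exactly half above 15%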;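 note: 0% = DMSO wells and 100% = Ran loaded with GDP instead of GTP; wells of about 40 µL received 100 nL stock; the first replicate is given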
LANA-H2A inh = blocks KSHV LANA binding to histone H2A/H2B | cell-free LANA-H2A/H2B peptide, fluorescence polarization | inhibition, % (concentration not given with the values) | 320,000 compounds, 0.6% hits | AID 2629; in the data active = inhibition mostly above about 10%, no sharp cut-off; inactive = mostly below about 6.7%;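 note: stock transfer was 7.5 nL into about 10 µL; 0% = median of vehicle wells and 100% = median of positive control wells; one replicate is shown; the record names a cut of 25% in any replicate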
Target sequence (Q9QR71 whole entry, looked up): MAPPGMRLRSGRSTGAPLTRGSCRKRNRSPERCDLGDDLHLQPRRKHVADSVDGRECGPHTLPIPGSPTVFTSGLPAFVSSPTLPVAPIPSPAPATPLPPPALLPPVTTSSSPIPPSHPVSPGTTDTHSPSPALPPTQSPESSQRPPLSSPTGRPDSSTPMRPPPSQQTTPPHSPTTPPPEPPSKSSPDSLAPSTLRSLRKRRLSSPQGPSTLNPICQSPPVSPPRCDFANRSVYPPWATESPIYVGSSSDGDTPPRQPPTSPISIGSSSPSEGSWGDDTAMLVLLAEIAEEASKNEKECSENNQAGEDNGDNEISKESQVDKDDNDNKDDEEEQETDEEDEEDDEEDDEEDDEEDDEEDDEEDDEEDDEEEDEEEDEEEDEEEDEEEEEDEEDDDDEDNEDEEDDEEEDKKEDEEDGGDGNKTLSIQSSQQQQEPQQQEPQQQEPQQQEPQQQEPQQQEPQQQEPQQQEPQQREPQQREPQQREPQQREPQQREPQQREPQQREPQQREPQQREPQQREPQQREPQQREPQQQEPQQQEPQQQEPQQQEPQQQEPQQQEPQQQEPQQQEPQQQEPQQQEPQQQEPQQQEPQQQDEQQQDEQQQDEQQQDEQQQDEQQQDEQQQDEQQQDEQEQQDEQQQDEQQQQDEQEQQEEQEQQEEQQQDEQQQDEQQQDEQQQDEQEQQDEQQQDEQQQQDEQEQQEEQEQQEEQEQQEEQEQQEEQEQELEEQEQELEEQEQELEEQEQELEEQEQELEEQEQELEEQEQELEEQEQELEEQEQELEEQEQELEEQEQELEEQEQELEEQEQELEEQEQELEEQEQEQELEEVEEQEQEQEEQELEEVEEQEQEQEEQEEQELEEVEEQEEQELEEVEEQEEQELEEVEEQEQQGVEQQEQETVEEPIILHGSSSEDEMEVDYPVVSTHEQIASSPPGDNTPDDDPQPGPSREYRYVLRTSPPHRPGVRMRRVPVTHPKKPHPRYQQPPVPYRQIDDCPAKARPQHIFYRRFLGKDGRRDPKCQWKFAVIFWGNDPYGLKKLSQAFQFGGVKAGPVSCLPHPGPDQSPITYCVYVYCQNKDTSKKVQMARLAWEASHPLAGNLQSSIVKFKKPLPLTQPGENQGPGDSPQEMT
Vif A3G = HIV-1 Vif–A3G interaction blockers – biochemical, TR-FRET, GST-Vif 1-94, biotin-A3G peptide, dose response retest, primary screen (AID 1117319); 260,000 compounds, 0.57% hits; TR-FRET GST-Vif / biotin-A3G peptide binding; higher % means a stronger effect; test concentration not given here; strong numbers were not always called active; inhibition, %, or IC50 in µM where a hit was titrated;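 active = above the screen mean plus three standard deviations and confirmed in dose response; inconclusive = results disagree or hit not tested in dose response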;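 note: Vif residues 1-94 fused to GST binding biotinylated APOBEC3G peptide 110-148; 0% = full assay without inhibitor and 100% = GST in place of GST-Vif; retest series ran down from 100 µM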
HNF4A DNA FP = change in binding of human HNF4 alpha to DNA; P41235; AID 1224865; 360,000 compounds, 0.3% hits; activity change, % at 10 µM; HNF4a-FITC DNA binding, fluorescence polarization, 1 h; in the data active = activity change above about 30%, passing the limit was not always enough;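 note: controls were the assay level and a saturating level of protein; the project sought stronger binding though the title names inhibitors; some compounds called inactive have numbers as strong as hits; positive values seem to mean higher polarization but the record does not say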
Calb FLC = affects C. albicans growth with fluconazole. 300,000 compounds, 0.57% hits. AID 1979. growth inhibition, % (test concentration not listed). C. albicans CaCi-2 (fluconazole-resistant clinical isolate) + fluconazole, Alamar Blue growth, 48 h;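 active = most replicates above 75%; inconclusive = exactly half above 75%; inactive = most below 75%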;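 note: all wells also contain fluconazole at 8 µg/ml as a sub-toxic cotreatment; 0% = median of DMSO wells and 100% = median of geldanamycin control wells; wells of about 8 µL received 7.5 nL stock; the first replicate is given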
ALR inh = inhibitors of human sulfhydryl oxidase ALR; purified ALR, DTT oxidation, H2O2 HRP-luminol luminescence; inhibition, % (no concentration beside the values); 290,000 compounds, 3.8% hits;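 active = mean and each replicate at 75% or more; inconclusive = only one of the two met; inactive = neither met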;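 note: stock transfer was 7.5 nL into about 7.5 µL; 0% = neutral wells and 100% = wells with inactivated enzyme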
B2AR ag = agonists of human beta-2 adrenergic receptor inducing internalization; Am2.2-beta2AR cells, FAP receptor internalization, flow cytometry; reference of the scale not given here; response, % (no concentration beside the values); 340,000 compounds, 0.43% hits;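 active = response above a set limit, near 3 SD of response in nonfluorescent compounds, cut at about 42% in these data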;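 note: stock transfer was 100 nL into about 11 µL; a reference agonist was the positive control; negative values mostly stem from fluorescent compounds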
Starred values were filed as active, the others as inactive; ? = inconclusive; nt = not tested or not shown; & = joins results of further samples.

SMILES	RanGTP-Impb inh	LANA-H2A inh	Vif A3G	HNF4A DNA FP	Calb FLC	ALR inh	B2AR ag
Cc1ccc(S(=O)(=O)N(Cc2ccc(Cl)cc2)c2ccccc2C(=O)NCc2ccco2)cc1	-0.2	0.0	3%	-4.3	18	1	12
COc1ccccc1C(=O)NCC(=O)N=Nc1c(O)n(C(C)C)c2ccccc12	1.4	-1.9	nt	-1.1	-18	-7	0
CCNC(=S)Nc1cc(-c2ccc(Cl)cc2)[nH]n1	1.1	-2.2	-11%	0.6	-2	97*	11
COc1ccc2c(c1)c(CC(=O)Nc1nnc(C3CC3)s1)c(C)n2C(=O)c1ccc(Cl)cc1	0.0	1.9	7%	16	1	-2	13
COc1ccc(NC(=O)NNS(=O)(=O)c2ccc(OC)c(OC)c2)c(OC)c1	1.0	-3.0	6%	-1.3	-2	38	-1
O=C(Nc1ccc(F)cc1)c1nc[nH]c1C(=O)O	1.0	-0.9	6%	5.4	2	-12	8
CCN(CC)C(=O)[C@H]1C[C@H](CC(=O)NCCc2ccccn2)C(=O)N2CCc3c([nH]c4cc(-c5ccco5)ccc34)[C@]12C	nt	nt	7%	0.9	nt	nt	2
Cc1ccc(N(C(=O)NC2CCCCC2)C2=NCCCCC2)cc1	-2.1	1.2	11%	-0.9	-11	nt	5
Cc1cc(NC2CCCC2)n2nc(C)c(-c3ccccc3)c2n1	2.5	-1.3	3%	-1.4	2	-4	8
CCN1C(=O)CC(C(=O)OC)=C1C	-2.8	-3.9	5%	2.4	2	-3	-7
Cc1c(NS(=O)(=O)c2cc(C(=O)NCc3cccnc3)ccc2Cl)c(=O)n(-c2ccccc2)n1C	nt	-2.1	-2%	5.0	nt	-2	10
CC(C)Cn1c(N)c(C(=O)COC(=O)C2CCCN2C(=O)c2cccs2)c(=O)n(C)c1=O (centres undefined)	nt	18*	12%	-5.4	nt	-23	1
O=C1COc2c1ccc(O)c2O	nt	nt	8%	-1.1	nt	nt	-2
Cc1nnc(NC(=O)CCS(=O)(=O)c2ccccc2)s1	-0.8	-1.1	nt	-3.3	-8	1	-5
COc1ccc(NC(=O)COC(=O)C23CC4CC(CC(O)(C4)C2)C3)cc1Cl	nt	-1.3	nt	-1.6	nt	0	4
O=C1CN(C(=O)COC(=O)c2ccc(Cl)c(S(=O)(=O)N3CCCCC3)c2)c2ccccc2N1	nt	1.1	nt	3.1	nt	nt	-1
CCCCNc1nnc(SCC(=O)c2c[nH]c3ccccc23)s1	0.0	1.3	7%	-0.6	-14	-5	2
O=C(NCCOc1ccccc1)c1cc(C(=O)NCCOc2ccccc2)cc([N+](=O)[O-])c1	3.7	6.4	-3%	-2.9	-7	-67	-3
CCOC(=O)c1c2ccccc2[n+]([O-])n1CCO	-0.8	-3.0	nt	-0.1	3	-3	0
CCOC(=O)c1c(N)sc2c1CCC1C(=O)N(C3CCCCC3)C(=O)C21 (centres undefined)	-9.2	7.0	2%	3.4	-14	7	2
COc1ccc(CC(=O)OCC(=O)Nc2ccc(C(=O)Nc3ccc(OC)cc3)cc2)cc1	-0.8	4.0	3%	2.4	14	10	-6
COc1ccccc1NC(=O)Cc1noc(CSc2nnc(C)n2C)n1	9.8	1.1	4%	1.1	33	-9	0
C#CCOCCOCCOCCNc1nc(N2CCN(C(=O)[C@H](Cc3ccc(O)cc3)n3cc(C(N)CC(C)C)nn3)CC2)nc(N2CCN(C(=O)[C@H](CCC(=O)O)n3cc(C(N)[C@H](C)CC)nn3)CC2)n1 (some centres undefined)	?	-2.0	2%	-2.3	7	4	6
COc1ccc(-c2ccnc3nc(Sc4ncc(C(F)(F)F)cc4Cl)nn23)cc1	0.5	-6.6	-4%	2.8	26	-1	-11
CC(=O)c1c(N2CCN(c3cccc(Cl)c3)CC2)nc(=S)n(-c2ccccc2)c1C	46*	1.8	-1%	1.9	1	2	11
Cc1cc(NC(=O)c2coc(=O)c(Br)c2)ccc1C(C)C	-0.1	-4.2	11%	6.1	0	nt	16
C=CCn1c(-c2ccccc2)nc(=S)c2c1CC(C)(C)OC2	-1.3	2.6	-3%	2.0	4	-3	-3
O=C(N/N=C1/C(=O)c2cccc3cccc1c23)c1ccc(Cl)cc1	-6.5	0.9	4%	-8.4	-3	-2	8
CCCCCn1c(=NC(C)=O)c(C#N)cc2c(=O)n3ccccc3nc21	108*	-2.7	2%	-2.7	-1	14	4
CC1CC1C(=O)Nc1nc2ccc(Cl)cc2s1 (centres undefined)	-3.9	-6.0	nt	-2.2	-7	-5	1
CC(=O)c1ccc(NC(=O)CSc2nnc(C3CC3)n2C)cc1	3.7	3.4	2%	16	0	nt	-5
CC(=O)c1ccc(S(=O)(=O)N2CCC(NC(=O)Nc3cccc(F)c3)CC2)cc1	-0.6	-2.9	0%	7.2	19	3	0
CCC(C)[C@H](NC(=O)Nc1ccc(S(N)(=O)=O)cc1)C(=O)OC (some centres undefined)	?	-3.2	1%	0.6	0	nt	0
CC1CCN(CC(=O)NCc2ccco2)CC1	-2.6	0.3	10%	2.7	2	4	4
COc1ccc(-c2cc(=O)[nH]c(N3CCN(Cc4ccccc4)CC3)n2)cc1	6.1	1.7	nt	1.9	17	1	-2
COc1ccc(S(=O)(=O)n2cnc3cc(C)c(C)cc32)cc1C	-5.2	-6.1	-4%	2.7	-6	-2	-7
COCCn1c(Cc2ccccc2)nnc1SCC(=O)N1CCOCC1	1.9	3.1	-14%	0.5	11	nt	-2
Cc1cccc2nc(COc3ccc4ccccc4c3Br)cn12	-3.1	2.4	-10%	0.0	-8	-10	98*
O=C(CCCn1c(=O)oc2ccccc21)Nc1ccccc1	nt	nt	-5%	2.1	nt	nt	-7
O=C(Nc1ccccc1N1CCOCC1)c1cc(-c2ccncc2)nc2ccccc12	5.6	2.1	?	-0.1	1	-30	3
O=C(CSc1nnc(-c2cccs2)o1)NCC1CN(Cc2ccccc2)CCO1 (centres undefined)	1.8	2.8	-4%&2%	0.6	-3	-19	-10
CC1=C(CCN2CCN(C(C)C)C(CCO)C2)C(C)(C)CCC1 (centres undefined)	4.2	1.3	-9%	4.3	-2	1	9
CCNC(=O)C(=O)NCCc1ccc(Cl)cc1	2.8	-0.6	7%	7.2	-4	-22	-1
CC(=O)c1cccc(NC(=O)N2C3CCCC2CC(NC(=O)C2CC2)C3)c1 (centres undefined)	-1.2	2.0	nt	-0.4	-2	-2	12
O=C(CCC(=O)NCCO)NCCO	5.6	3.4	8%	-5.2	16	-8	13
Cc1cc(C)n(-c2nnc(NCc3ccc(Cl)cc3)nn2)n1	0.0	2.6	nt	1.4	-25	-57	-4
Cc1cc(NC(=O)CCCC(=O)NCc2ccccc2)no1	4.8	-0.9	-6%	-4.9	11	-8	10
CCNC(=O)COc1ccc(Br)cc1Cl	-5.6	-6.2	1%	-0.8	23	-20	-7
O=C(COc1ccc(Cl)cc1Cl)Nc1ccc(CN2CCOCC2)cc1	11	6.4	nt	6.3	-1	-2	-6
O=C(CSc1nnc(-c2ccc(OC(F)F)cc2)o1)NCc1cccs1	-2.6	-4.9	-3%	1.7	-6	6	-2
(list continues)
SMILES	RanGTP-Impb inh	LANA-H2A inh	Vif A3G	HNF4A DNA FP	Calb FLC	ALR inh	B2AR ag
O=C(CCC(=O)N1CCCC(Nc2ccccc2)C1)c1ccc(F)cc1 (centres undefined)	-2.3	-6.0	nt	-3.1	9	99*	4
O=C(CCn1c(=S)[nH]c2cc3c(cc2c1=O)OCO3)NCc1cccc(Cl)c1	3.7	6.5	nt	1.4	28	15	0
O=C(NNC(=O)c1c(F)cccc1F)c1sccc1-n1cccc1	0.3	-0.5	nt	-3.9	-10	17	-3
Cc1cccc(CN2CCc3c([nH]c4ccccc34)C2CC(C)C)n1 (centres undefined)	-0.1	4.2	nt	-3.9	15	0	2
CCCCn1c(N)c(N(CCOC)C(=O)CN2c3ccccc3CC2C)c(=O)[nH]c1=O (centres undefined)	38*	-3.0	4%	-1.9	19	-26	-4
COc1ccc(N2CCN(C(=O)CN=C3NS(=O)(=O)C(c4ccc(C)cc4)=C3C)CC2)cc1	nt	0.2	13%	1.0	nt	nt	-3
C[C@]12c3[nH]c4ccccc4c3CCN1C(=O)C(CC(=O)NCc1cccc(C(F)(F)F)c1)C[C@@H]2C(=O)N1CCCCC1 (some centres undefined)	nt	-1.7	1%	1.7	nt	nt	0
Cn1cc(S(=O)(=O)NCc2ccc(F)cc2)c(=O)n(C)c1=O	1.1	7.9	nt	-2.0	-2	4	-3
COc1ccccc1Cc1nc2ccccc2n1S(=O)(=O)c1ccc(Cl)cc1	-3.2	4.5	0%	-1.8	23	5	-5
O=C(CSc1nnc(-c2ccncc2)o1)NC1CCCCC1	-1.6	-3.0	8%	-1.3	3	-19	1
O=C1CC(c2cccs2)c2cc3c(cc2N1)OCO3 (centres undefined)	1.2	-5.1	17%	0.6	-5	1	-13
Cc1nn(CC(=O)NNC(=O)c2cccc(Br)c2)c(C)c1[N+](=O)[O-]	-0.2	-2.5	1%	1.8	-3	-6	1
Cc1cccc(C)c1NC(=O)CN(C)C(=O)c1cc(S(=O)(=O)N(C)C)ccc1N1CCCC1	nt	7.5	nt	0.3	-5	-4	1
Cc1cccc(C)c1NC(=O)CNC(=O)C(C)N1CCCCC1 (centres undefined)	nt	0.5	nt	0.6	nt	-8	11
COc1ccc(NC(=O)CN(C)C(=O)c2oc3ccccc3c2C)cc1	-2.3	0.8	4%	-2.9	-14	-3	3
Cc1ccc(OCCC(=O)OCC(=O)Nc2ccc(N3CCOCC3)cc2)cc1	0.5	-0.3	-2%	1.4	12	-4	6
c1ccc2c3c([nH]c2c1)-c1[nH]ncc1CC3	-3.9	-2.3	11%	-2.0	8	98*	-5
CN1C(=O)CSc2ccc(NC(=O)Nc3ccccn3)cc21	5.7	-7.4	3%	5.9	-8	2	-2
COc1ccc(N(C(=O)c2snc(C(N)=O)c2N)C(C(=O)NC2CCCC2)c2cc(OC)ccc2OC)cc1 (centres undefined)	-0.6	-1.1	-3%	-0.7	-20	-7	2
C1CCCCCC(NCCN2CCNCC2)CCCCC1	0.7	-5.4	-2%	0.7	0	-6	32
Brc1ccc(-c2csc(N3CCC(c4ccccc4)C3)n2)cc1 (centres undefined)	-3.5	-0.4	-5%	1.4	36	-1	6
O=C(Nc1ccc(Br)cn1)c1ccc(Cl)s1	-1.9	3.6	nt	0.5	15	-7	-10
CSCCC(NC(=O)c1ccco1)C(=O)N1CCN(C(c2ccccc2)c2ccccc2)CC1 (centres undefined)	nt	nt	-6%	-0.6	nt	nt	7
CNC(=O)Cc1nc2ccccc2n1CC(=O)Nc1cc(C)cc(C)c1	?	1.0	26%	-0.6	-4	-9	21
CSCCC(NS(=O)(=O)c1ccc(C)cc1)C(=O)N1CCCC1 (centres undefined)	1.9	10*	nt	-0.4	-2	-2	0
O=C(CC1C(=O)NCCN1Cc1cccc(C(F)(F)F)c1)NC1CCOCC1 (centres undefined)	1.0	8.9	nt	3.4	-7	-14	3
Cc1ccc(SCC(=O)NC2CCS(=O)(=O)C2)cc1C (centres undefined)	nt	1.5	nt	-0.8	nt	99*	-1
COc1cc(OC)cc(C(=O)NC2CCN(CCCOc3ccccc3)CC2)c1	5.6	5.1	-2%	2.8	9	-3	2

RanGTP-Impb inh: hit marks shown above
Molecule | RanGTP-Impb inh | LANA-H2A inh | Vif A3G | HNF4A DNA FP | ALR inh | B2AR ag
CC(=O)c1c(N2CCN(c3cccc(Cl)c3)CC2)nc(=S)n(-c2ccccc2)c1C | 46* | 1.8 | -1% | 1.9 | 2 | 11
CCCCCn1c(=NC(C)=O)c(C#N)cc2c(=O)n3ccccc3nc21 | 108* | -2.7 | 2% | -2.7 | 14 | 4
CCCCn1c(N)c(N(CCOC)C(=O)CN2c3ccccc3CC2C)c(=O)[nH]c1=O (centres undefined) | 38* | -3.0 | 4% | -1.9 | -26 | -4

Compound activity: PubChem BioAssay, several laboratories
